Compound activity (PubChem)
Beta cell apopt: blocks beta cell apoptosis; INS-1E cytokine-induced death, ATP luminescence, 48 h; percent of positive-control rescue, neutral wells zero; protection from apoptosis, % (no concentration beside the values); hit rate 0.8% among 300,000;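 active = all replicates at 75% or more, or half of them and the mean; inconclusive = half reach 75% but not the mean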;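 note: 0% = cytokine-treated negative control wells and 100% = positive control rescue; higher means more ATP so stronger rescue from cytokine killing; wells of about 40 µL received 100 nL stock; the first replicate is given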
Vif A3G: HIV-1 Vif–A3G interaction blockers – biochemical, TR-FRET, GST-Vif 1-94, biotin-A3G peptide, dose response retest, primary screen (AID 1117319); one-dose inhibition, %; IC50 in µM for titrated hits; TR-FRET GST-Vif / biotin-A3G peptide binding; higher % means a stronger effect; test concentration not given here; strong numbers were not always called active; hit rate 0.57% among 260,000;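 active = above the screen mean plus three standard deviations and confirmed in dose response; inconclusive = results disagree or hit not tested in dose response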;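 note: Vif residues 1-94 fused to GST binding biotinylated APOBEC3G peptide 110-148; 0% = full assay without inhibitor and 100% = GST in place of GST-Vif; retest series ran down from 100 µM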
Ecoli rRNA inh: selective bacterial rRNA inhibition in E. coli | GFP signal change (wild-type ribosome), % (test concentration not listed) | E. coli WT GFP vs humanized-ribosome RFP mutants, fluorescence, 24 h; stronger effect = lower value; DMSO median 0, no signal -100 | AID 720706 | hit rate 1.6% among 350,000;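 active = significant combined selectivity score with lowered wild-type GFP, culture density cut under 30%, mutant RFP and density less affected; inactive = any of these conditions unmet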; note: one replicate is shown; some compounds called inactive have numbers as strong as hits
T cruzi repl: T. cruzi replication inhibition | hit rate 1.4% among 300,000 | T. cruzi beta-gal in NIH3T3, luminescence, 90 h | inhibition, % (test concentration not listed);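 active = mean inhibition across valid replicates above about 55%, limit read from the data; inconclusive = mean below that limit but half or more replicates reach it; inactive = mean below it, under half of replicates reach it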;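 note: signal also drops with host cell toxicity which is not excluded here; 0% = plate median of DMSO wells and 100% = zero luminescence signal; higher percent means less beta-gal luminescence so fewer parasites; stock transfer was 50 nL into about 50 µL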
Bfl-1 A1 inh: inhibitors of the anti-apoptotic protein A1, read as caspase activation; MEF A1-2A-BIM cells, Caspase-Glo 3/7 luminescence, 3 h; percent of clofoctol response, vehicle zero; caspase activation, % (concentration not given with the values); hit rate 0.066% among 330,000; AID 2462;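 active = over half of replicate activation scores above 10%, or exactly half above 10 with the replicate mean above 10; inconclusive = replicate mean below 10 yet half the replicates above 10; inactive = over half of replicates below 10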;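 note: wells of about 30 µL received 50 nL stock; many hits fall short of the cut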
RanGTP-Impb inh: inhibitors of RanGTP-importin-beta interaction, primary screen, biochemical, FRET, CFP-Ran, YFP-importin-beta, homogeneous | cell-free CFP-Ran/YFP-importin-beta FRET ratio | inhibition, % (test concentration not listed) | hit rate 1.1% among 300,000 | AID 2216;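 active = most replicates above 15%; inconclusive = exactly half above 15%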;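 note: 0% = DMSO wells and 100% = Ran loaded with GDP instead of GTP; wells of about 40 µL received 100 nL stock; the first replicate is given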
Calb FLC: C. albicans growth modulation with fluconazole; C. albicans CaCi-2 (fluconazole-resistant clinical isolate) + fluconazole, Alamar Blue growth, 48 h; growth inhibition, % (test concentration not listed); hit rate 0.57% among 300,000;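 active = most replicates above 75%; inconclusive = exactly half above 75%; inactive = most below 75%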;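 note: all wells also contain fluconazole at 8 µg/ml as a sub-toxic cotreatment; 0% = median of DMSO wells and 100% = median of geldanamycin control wells; wells of about 8 µL received 7.5 nL stock; the first replicate is given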
MLL AF4-AF9 inh: inhibitors of human MLL-AF4/AF9 interaction; P42568; AlphaScreen, biotin-AF4 peptide binding to FLAG-AF9; hit rate 0.47% among 350,000; inhibition, % at 10 µM;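 active = every replicate reaching a set inhibition limit, whatever the replicate mean, cut at about 25% in these data; inconclusive = mean inhibition reaches that limit but some replicates miss it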;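 note: 0% = plate neutral control median and 100% = total signal loss; the record names both 10 and 1 µM as test concentration; the first replicate is given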
Target sequence (P42568 whole entry, looked up): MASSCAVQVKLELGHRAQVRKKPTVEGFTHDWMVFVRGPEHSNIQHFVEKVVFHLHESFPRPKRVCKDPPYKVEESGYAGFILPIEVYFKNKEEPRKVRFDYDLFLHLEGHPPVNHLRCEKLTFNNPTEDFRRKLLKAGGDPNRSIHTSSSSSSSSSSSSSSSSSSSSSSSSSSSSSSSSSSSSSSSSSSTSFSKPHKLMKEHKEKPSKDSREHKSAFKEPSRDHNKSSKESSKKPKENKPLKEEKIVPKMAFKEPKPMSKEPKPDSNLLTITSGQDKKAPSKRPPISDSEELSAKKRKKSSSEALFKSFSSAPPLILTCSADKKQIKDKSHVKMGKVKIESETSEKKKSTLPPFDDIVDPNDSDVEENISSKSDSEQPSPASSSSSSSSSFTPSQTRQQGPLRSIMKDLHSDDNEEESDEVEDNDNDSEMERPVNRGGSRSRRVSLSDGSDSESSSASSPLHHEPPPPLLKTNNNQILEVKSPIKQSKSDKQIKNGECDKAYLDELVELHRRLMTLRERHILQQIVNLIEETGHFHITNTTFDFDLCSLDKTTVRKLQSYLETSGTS
Ecoli rRNA inh OD600: further read-out of Ecoli rRNA inh, marked with its call; OD600 change, %; measured here: OD600 growth;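 optical density of the mix in the first replicate; 0 = DMSO median and -100 = no signal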
Ecoli rRNA inh RFP: recorded beside Ecoli rRNA inh, whose call it bears; RFP signal change, %; measured here: RFP humanized mutant strains;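 first replicate; 0 = DMSO median and -100 = no signal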
* = called active by the depositor; u = inconclusive; x = not tested or not shown; & = joins results of further samples. This is a subset; the hit share may differ from the screen's.

Values run as follows: Beta cell apopt	Vif A3G	Ecoli rRNA inh	Ecoli rRNA inh OD600	Ecoli rRNA inh RFP	T cruzi repl	Bfl-1 A1 inh	RanGTP-Impb inh	Calb FLC	MLL AF4-AF9 inh
CCSc1nnc(NC(=O)CSc2nc(C)cc(C)n2)s1
  -2	-2%	x	x	x	-1	0.0	5.1	2	x
Cc1cc(=O)oc2cc(OC(C)C(=O)N3CCCc4ccccc43)ccc12 (centres undefined)
  8	u	x	x	x	20	-0.7	0.5	-10	x
Cc1ccc(/C=N/NC(=O)Cc2cccs2)o1
  -2	-5%	20	5	-5.8	-11	0.2	-4.3	23	-1.7
Cc1cccc(C)c1OCCCCN1CCCCC1
  -4	x	8	6	0.0	-10	-0.2	-0.5	-6	1.3
Cc1ccnc(Nc2nc(-c3ccccc3)cs2)c1
  14	x	-15	-13	2.4	19	-6.3	u	-10	7.4
COc1ccc2c(COC(=O)CCS(=O)(=O)c3ccc(C)cc3)cc(=O)oc2c1
  -4	-1%	14	12	0.9	-2	-1.5	0.7	7	-28
Cc1cc(C(=O)c2ccccc2)nc2ccccc12
  -3	-3%	x	x	x	3	0.2	u	56	x
CCOC(=O)c1c(C)[nH]c(O)c1C=Nc1ccccc1
  -3	2%	x	x	x	-8	0.1	1.1	u	x
CCc1ccccc1NC(=O)Nc1cccs1
  -3	18%	2	1	-0.2	-1	-0.1	1.0	27	-6.3
COc1ccc(CCNC(=O)COc2ccc(-c3ccc(C)cc3)cc2)cc1OC
  -10	0%	7	-3	2.8	12	0.2	-0.1	3	-15
COc1ccc(Cc2nc3ccccc3n2CC(=O)N/N=C/c2ccc(O)cc2)cc1OC
  -5	x	6	6	-1.2	-8	-0.1	0.4	4	-5.9
CCOc1cccc(C(=O)Nc2cccc(NC(=O)c3ccco3)c2)c1
  4	u	-9	-11	6.1	-3	0.8	2.2	-11	-0.3
O=C(C1CCCN(Cc2ccccc2F)C1)N1CCCC1 (centres undefined)
  -2	x	-1	3	-4.1	17	0.3	1.5	-5	4.5
Cc1ccnc(N2C(=O)c3ccccc3C2Nc2ccc3c(c2)OCCO3)c1 (centres undefined)
  2	7%	1	-3	-2.1	31	-2.9	-6.0	4	9.9
Cc1ccc(C(C)C)cc1OCC(=O)NC1CCCCCCC1
  5	-2%	16	7	12	u	-0.2	x	-13	-1.6
CC(=O)Nc1cc(NC(C)=O)cc(C(=O)OCC(=O)c2ccc3c(c2)NC(=O)CO3)c1
  -5	x	10	13	-3.0	-8	0.4	1.8	-5	4.0
CC(=O)c1cccc(NC(=O)COC(=O)CCc2ccc(S(=O)(=O)N3CCOCC3)cc2)c1
  -5	24%	15	22	-7.5	1	0.2	2.0	23	-0.2
OCC[C@H]1C[C@@H](O)[C@H](O)[C@@]2(CCCO2)O1
  4	x	13	13	-2.5	-5	0.0	-1.7	22	1.9
COCCN1CCn2c(nc3cc(NC(=O)c4ccc(OC)cc4)ccc32)C1
  -1	-3%	x	x	x	4	-0.4	2.3	7	x
Cc1ccccc1C(C(=O)NC1CCCC1)N(C(=O)Cc1cccs1)c1ccc2c(c1)OCCO2 (centres undefined)
  8	u	8	11	-0.2	18	0.0	0.6	53	x
CCCCS(=O)(=O)C1CCS(=O)(=O)C1 (centres undefined)
  -1	u	x	x	x	-5	-0.8	0.6	5	x
Cc1ccc(N(C(=O)c2csnn2)C(C(=O)NC2CCCCC2)c2cccnc2)cc1 (centres undefined)
  3	4%	x	x	x	16	0.5	0.9	-5	2.0
O=C1CC(N2CCN(c3ccc(Cl)cc3)CC2)C(=O)N1c1ccccc1 (centres undefined)
  2	x	3	11	6.0	-2	0.1	-4.9	35	-1.3
Cc1ccc(CNC(=O)C2CCCN(S(=O)(=O)c3c(C)noc3C)C2)cc1 (centres undefined)
  2	u	x	x	x	6	0.2	-3.4	-5	x
CCc1ccc(NC(=O)C2=CC=CN3CCS(=O)(=O)N=C23)cc1
  1	-10%	10	3	-0.7	x	0.1	x	x	0.5
Cc1ccc(CN2C(=O)CCC2C(=O)NC2CCCC2)cc1 (centres undefined)
  3	0%	x	x	x	-5	0.2	-3.7	-2	x
c1ccc2c(c1)[nH]c1c3ccccc3sc21
  x	x	-7	0	-2.5	7	-0.5	-2.2	-1	-3.9
Cc1cc(C)nc(SCCS(=O)(=O)Cc2ccc(Cl)cc2)n1
  -7	14%	x	x	x	-3	0.5	2.6	-6	x
CN1CCN(S(=O)(=O)c2cccs2)CC1
  -1	x	16	2	0.1	6	0.2	1.4	14	-1.8
Cc1ccc(-n2ncc(C(=O)Nc3cc(Cl)ccc3Cl)c2C2CCNCC2)cc1
  -7	8%	4	-2	2.0	26	0.7	4.4	0	4.5

Three compounds out of the list, arranged by count of non-hydrogen atoms, highest first:
Values run as follows: Beta cell apopt	Vif A3G	Ecoli rRNA inh	Ecoli rRNA inh OD600	Ecoli rRNA inh RFP	T cruzi repl	Bfl-1 A1 inh	RanGTP-Impb inh	Calb FLC	MLL AF4-AF9 inh
Cc1ccccc1C(C(=O)NC1CCCC1)N(C(=O)Cc1cccs1)c1ccc2c(c1)OCCO2 (centres undefined)
  8	u	8	11	-0.2	18	0.0	0.6	53	x
Cc1ccc(N(C(=O)c2csnn2)C(C(=O)NC2CCCCC2)c2cccnc2)cc1 (centres undefined)
  3	4%	x	x	x	16	0.5	0.9	-5	2.0
CCSc1nnc(NC(=O)CSc2nc(C)cc(C)n2)s1
  -2	-2%	x	x	x	-1	0.0	5.1	2	x

(list continues)
Values run as follows: Beta cell apopt	Vif A3G	Ecoli rRNA inh	Ecoli rRNA inh OD600	Ecoli rRNA inh RFP	T cruzi repl	Bfl-1 A1 inh	RanGTP-Impb inh	Calb FLC	MLL AF4-AF9 inh
C/C(=N\NC(=O)Nc1ccccc1)c1ccccc1
  -3	x	5	13	-0.4	-1	0.0	-2.1	1	2.2
CSc1ccc(CN(C)CC(=O)NC(=O)NCCC2=CCCCC2)cc1
  -1	70%	-19	-59	3.5	x	-0.6	x	x	1.1
COc1ccc([C@H]2C(C#N)=C([S-])N[C@](C)(O)[C@@H]2[n+]2ccccc2)cc1
  x	32%	6	6	2.6	0	x	-4.4	-4	u
Cc1ccc(CN2C(=O)C(CC(C)C)Nc3ncnc(N4CCOCC4)c32)cc1 (centres undefined)
  -15	x	-2&-1	2&-2	2.4&2.0	x	0.4	x	x	2.1
COc1ccc(NC(=O)CC2C(=O)N(Cc3ccco3)C(=S)N2C(C)C)cc1 (centres undefined)
  -4	1%	-9	-14	4.7	-10	0.0	-3.9	-13	-3.3
CCC1Nc2ncnc(N3CCc4ccccc4C3)c2N(Cc2ccc(Cl)cc2)C1=O (centres undefined)
  -6	x	-17*	-11*	6.6*	x	-0.6	x	x	4.8
CC(C)CC(C)NC(=O)c1ccc(C(F)(F)F)cc1 (centres undefined)
  -7	x	4	4	8.0	0	0.5	3.9	2	1.0
O=C(CCNS(=O)(=O)c1ccc(Br)cc1)N1CCN(c2ccccc2O)CC1
  8	0%	-10	-8	-1.0	2	0.2	-0.2	-5	-0.1
O=C(NCC1CCCO1)c1cc(S(=O)(=O)N2CCOCC2)c(Cl)cc1Cl (centres undefined)
  x	-6%	5	11	0.2	8	x	-1.4	-4	-6.9
CCCC12CN3CC(C)(CN(C1)C3c1ccc([N+](=O)[O-])o1)C2=O (centres undefined)
  -5	x	-2	-1	-3.5	17	1.3	-2.5	-10	x
O=c1c2ccccc2nnn1Cc1nnc(-c2ccccc2Br)o1
  -1	1%	x	x	x	-8	-1.3	-0.3	-25	x
COC(=O)c1ccc(CN(C(C)=O)c2ccccc2)o1
  -4	-2%	x	x	x	-5	0.2	-2.6	0	x
CSCCC(=O)Nc1cc(S(=O)(=O)N2CCOCC2)ccc1N1CCN(C)CC1
  -4	17%	2	5	0.9	65*	-0.1	-0.4	-5	-1.8
CCN(C(=O)CSc1nnc(-c2ccncc2)n1-c1ccccc1)C1CCS(=O)(=O)C1 (centres undefined)
  -3	-5%	13	5	0.1	2	0.3	2.9	12	-1.4
O=C(Cn1cncn1)N/N=C/c1cc([N+](=O)[O-])ccc1O
  12	8%	4	-4	-7.2	-6	0.0	-1.0	-4	-2.3
COc1ccc(OC)c(NC(=O)CN2C(=O)c3ccccc3S2(=O)=O)c1
  x	13%	x	x	x	-6	0.9	x	-22	x
COC(=O)C(NC(=O)c1ccccc1)=C1CCCCC1
  -6	7%	x	x	x	3	0.2	-3.6	-2	x
CCOC(=O)C1=C(CS(=O)(=O)c2ccc(F)c(C)c2)NC(=O)NC1c1ccc(O)c(O)c1 (centres undefined)
  -1	u	2	1	4.2	-12	-0.1	-3.7	-11	-5.3
COc1ccc(C(=O)CN2CCN(c3cc(C)nc4ccccc34)CC2)cc1
  1	7%	2	1	-0.8	-2	-0.4	2.5	9	6.1
O=S(=O)(/C=C/c1ccccc1)Oc1ccccc1
  -19	-5%	-3	-14	1.5	-2	0.1	1.0	-8	-0.1

Complete entries, looked up by structure. Order of screens: Beta cell apopt, Vif A3G, Ecoli rRNA inh, Ecoli rRNA inh OD600, Ecoli rRNA inh RFP, T cruzi repl, Bfl-1 A1 inh, RanGTP-Impb inh, Calb FLC, MLL AF4-AF9 inh
CSCCC(=O)Nc1cc(S(=O)(=O)N2CCOCC2)ccc1N1CCN(C)CC1 across the screens: -4, 17%, 2, 5, 0.9, 65*, -0.1, -0.4, -5, -1.8
COC(=O)C(NC(=O)c1ccccc1)=C1CCCCC1 across the screens: -6, 7%, x, x, x, 3, 0.2, -3.6, -2, x
Cc1ccc(CN2C(=O)C(CC(C)C)Nc3ncnc(N4CCOCC4)c32)cc1 (centres undefined) across the screens: -15, x, -2&-1, 2&-2, 2.4&2.0, x, 0.4, x, x, 2.1
CSc1ccc(CN(C)CC(=O)NC(=O)NCCC2=CCCCC2)cc1 across the screens: -1, 70%, -19, -59, 3.5, x, -0.6, x, x, 1.1
